HIV Env fusion = inhibitors of HIV-1 Env-driven cell-cell fusion, primary screen, HeLa-JRFL effector, CEM21 target cells, luciferase; inhibition, % at 12.3 µM; hit rate 1.1% among 360,000; AID 651610, 2012;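 active means mean replicate inhibition score of at least 50 and every replicate individually at or above 50; inconclusive means only one of the two criteria met; inactive means mean below 50 and not all replicates reaching 50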;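 further: 0% = plate neutral controls and 100% = maraviroc near 300 nM; one replicate is shown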
Yeast UUG start = modulators of yeast start codon fidelity, primary screen, whole organism, S. cerevisiae, single point, plate reader; activity score, % at 18.7 µM; hit rate 0.13% among 350,000; S. cerevisiae UUG-firefly luciferase reporter, luminescence/redox ratio; AID 602363, 2012;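 active means replicate mean at a twofold rise or more, about +100% in these data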;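 further: firefly luciferase made from a UUG start codon reports start codon fidelity; reporter light over untreated wells divided by growth signal over untreated wells; some hits fall short of that in this replicate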
An asterisk follows results filed as active; ? = inconclusive; & = joins results of further samples; [ ] = remark or other dose.

mol	HIV Env fusion	Yeast UUG start
CN(C)CCCNC(=O)C[C@H]1C=C[C@@H](NC(=O)Cc2cccnc2)[C@H](CO)O1	-0.9[16.7 µM]	-4.2
O=C(Nc1cccc(Cl)c1)N[C@@H]1CC[C@H](CCNC(=O)C2CCCC2)O[C@@H]1CO	2.7[16.7 µM]	1.8
C[C@@H]1CN([C@@H](C)CO)C(=O)c2cc(NC(=O)CCC(F)(F)F)ccc2O[C@@H]1CN(C)Cc1ccccc1	-22.7[16.7 µM]	0.1
COc1cccc(-c2cnc3c(c2)C(=O)N([C@@H](C)CO)C[C@H](C)[C@H](CN(C)C(=O)CC2CC2)O3)c1	-11.2[16.7 µM]	-8.4
C[C@H]1CN([C@@H](C)CO)S(=O)(=O)c2ccc(C#CC3CCCC3)cc2O[C@H]1CN(C)C(=O)Cc1ccncc1	-4.4[16.7 µM]	9.4
O=C(Nc1ccccc1)N[C@@H]1CC[C@H](CCNS(=O)(=O)c2cccc(F)c2)O[C@@H]1CO	-235.3[16.7 µM]	-9.4
C[C@H](CO)N1C[C@H](C)[C@H](CN(C)S(=O)(=O)c2cn(C)cn2)Oc2c(NS(=O)(=O)c3cn(C)cn3)cccc2C1=O	1.3[16.7 µM]	-2.4
C[C@H](CO)N1C[C@H](C)[C@H](CN(C)C(=O)C2CCC2)Oc2ncc(C#CC(C)(C)O)cc2C1=O	-6.1[16.7 µM]	-4.6
C[C@@H]1CN([C@@H](C)CO)C(=O)Cc2cc(NC(=O)Cn3cnnn3)ccc2O[C@@H]1CN(C)C(=O)Nc1ccc(C(F)(F)F)cc1	-3.4[16.7 µM]	4.0
COc1ccc(NC(=O)Nc2ccc3c(c2)CC(=O)N([C@@H](C)CO)C[C@@H](C)[C@@H](CN(C)S(=O)(=O)c2ccc(OC)cc2)O3)cc1	0.8[16.7 µM]	-10.1
C[C@@H]1CN([C@@H](C)CO)S(=O)(=O)c2ccc(Br)cc2O[C@H]1CN(C)Cc1cncnc1	13.5[16.7 µM]	12.5
C[C@@H]1CN([C@@H](C)CO)C(=O)Cc2cc(NC(=O)C3CCCCC3)ccc2O[C@H]1CN(C)S(=O)(=O)c1cccs1	3.3[16.7 µM]	11.4
CO[C@@H]1CN(C)C(=O)c2cc(NC(=O)c3ccccc3)ccc2OC[C@H](C)N(C(=O)C2CC2)C[C@@H]1C	15.2[16.7 µM]	4.0
C[C@@H]1CN([C@@H](C)CO)C(=O)c2cc(NC(=O)Cc3ccccc3)ccc2O[C@@H]1CN(C)Cc1ccc(-c2ccccc2)cc1	5.4[16.7 µM]	-4.4
COc1ccc(-c2ccc3c(c2)O[C@H](CN(C)CC2CCOCC2)[C@@H](C)CN([C@@H](C)CO)S3(=O)=O)cc1	3.2[16.7 µM]	12.0
C[C@H]1CCCCO[C@H](CN(C)Cc2ccc3c(c2)OCO3)[C@@H](C)CN([C@@H](C)CO)C(=O)c2cc(NS(=O)(=O)c3cccs3)ccc2O1	18.0&-1.5[16.7 µM]	31.7&33.8
C[C@@H]1CN([C@@H](C)CO)C(=O)Cc2cc(NC(=O)Nc3ccc(F)cc3)ccc2O[C@H]1CN(C)Cc1ccc(Cl)c(Cl)c1	27.4[16.7 µM]	15.2
COc1ccc(C#Cc2ccc3c(c2)[C@]2(C(=O)N3)[C@H](C(=O)N3CCN(c4ncccn4)CC3)[C@H]3C(=O)O[C@H](c4ccccc4)[C@H](c4ccccc4)N3[C@@H]2c2ccc(OCCO)cc2)cc1	-9.5[16.7 µM]	2.7
CCNC(=O)Nc1ccc2c(c1)C(=O)N(C)[C@@H]1CC[C@@H](CC(=O)NCc3ccc(F)cc3)O[C@@H]1CO2	-3.5[16.7 µM]	5.5
CO[C@H]1CN(C)C(=O)c2cc(NC(=O)C3CCOCC3)ccc2OC[C@@H](C)N(C(C)=O)C[C@@H]1C	-22.9[16.7 µM]	1.2
C[C@H](CO)N1C[C@H](C)[C@@H](CN(C)CC2CCCC2)Oc2ncc(-c3ccc(F)cc3)cc2C1=O	14.9[16.7 µM]	4.9
C[C@H](CO)N1C[C@H](C)[C@H](CN(C)C(=O)Nc2cccc(F)c2)Oc2ncc(C3=CCCCC3)cc2C1=O	8.2[16.7 µM]	4.1
Cc1ccc(S(=O)(=O)N(C)C[C@@H]2Oc3ccc(NC(=O)CCCCCC(=O)Nc4ccccc4N)cc3CC(=O)N([C@H](C)CO)C[C@@H]2C)cc1	72.5*[16.7 µM]	-1.6
C[C@@H]1CCCCO[C@@H](CN(C)CC2CCCCC2)[C@H](C)CN([C@@H](C)CO)C(=O)c2cc(NC(=O)CCCCCC(=O)Nc3ccccc3N)ccc2O1	8.4[16.7 µM]	-2.0
O=C(C[C@H]1C[C@@H]2c3cc(NC(=O)C4CCOCC4)ccc3O[C@@H]2[C@@H](CO)O1)NCc1ccccc1	29.2[16.7 µM]	15.5
C[C@@H]1CN([C@H](C)CO)C(=O)Cc2cc(NC(=O)Cn3cnnn3)ccc2O[C@H]1CN(C)C(=O)Nc1ccc2c(c1)OCO2	6.0[16.7 µM]	-3.9
C[C@H]1CN([C@@H](C)CO)S(=O)(=O)c2ccc(-c3cccc(C#N)c3)cc2O[C@H]1CN(C)Cc1ccccn1	-2.5[16.7 µM]	-18.4
C[C@H](CO)N1C[C@H](C)[C@@H](CN(C)CC2CCCCC2)Oc2ccc(NC(=O)C3CCCCC3)cc2C1=O	7.0[16.7 µM]	-2.2
CNC[C@H]1Oc2ccc(NC(=O)C3CC3)cc2CC(=O)N([C@@H](C)CO)C[C@@H]1C	-10.0[16.7 µM]	-2.3
Cc1noc(C)c1S(=O)(=O)N(C)C[C@H]1Oc2ccc(NC(=O)NC3CCCCC3)cc2CC(=O)N([C@H](C)CO)C[C@H]1C	13.2[16.7 µM]	15.9

Reprinted from the listing, four compounds:
mol	HIV Env fusion	Yeast UUG start
C[C@@H]1CN([C@@H](C)CO)C(=O)Cc2cc(NC(=O)Cn3cnnn3)ccc2O[C@@H]1CN(C)C(=O)Nc1ccc(C(F)(F)F)cc1	-3.4[16.7 µM]	4.0
COc1ccc(NC(=O)Nc2ccc3c(c2)CC(=O)N([C@@H](C)CO)C[C@@H](C)[C@@H](CN(C)S(=O)(=O)c2ccc(OC)cc2)O3)cc1	0.8[16.7 µM]	-10.1
C[C@@H]1CN([C@@H](C)CO)S(=O)(=O)c2ccc(Br)cc2O[C@H]1CN(C)Cc1cncnc1	13.5[16.7 µM]	12.5
C[C@@H]1CN([C@@H](C)CO)C(=O)Cc2cc(NC(=O)C3CCCCC3)ccc2O[C@H]1CN(C)S(=O)(=O)c1cccs1	3.3[16.7 µM]	11.4

New compounds follow
Screens in order – HIV Env fusion, Yeast UUG start
COc1ccc(S(=O)(=O)Nc2ccc3c(c2)C(=O)N([C@H](C)CO)C[C@@H](C)[C@H](CN(C)S(=O)(=O)c2cn(C)cn2)O3)cc1
    -1.7[16.7 µM], -5.2
C[C@@H]1CN([C@@H](C)CO)C(=O)c2cccc(N(C)C)c2O[C@@H]1CN(C)Cc1ccc2c(c1)OCO2
    14.7[16.7 µM], 2.2
O=C(C[C@H]1C=C[C@@H](NC(=O)Nc2ccccc2F)[C@H](CO)O1)NCc1ccc(F)cc1
    3.1[16.7 µM], -11.3
Cc1noc(C)c1NC(=O)Nc1ccc2c(c1)C(=O)N([C@@H](C)CO)C[C@H](C)[C@@H](CN(C)C(=O)Nc1ccccc1)OCCCC[C@H](C)O2
    -14.7[16.7 µM], 11.2
C[C@@H]1CN([C@H](C)CO)C(=O)c2cc(-c3ccncc3)cnc2O[C@H]1CN(C)C(=O)c1ccccc1F
    6.4[16.7 µM], -16.6
COc1ccc(NC(=O)N(C)C[C@@H]2OCCCC[C@H](C)Oc3ccc(NC(=O)NC(C)C)cc3C(=O)N([C@@H](C)CO)C[C@@H]2C)cc1
    1.0[16.7 µM], 10.2
C[C@H](CO)N1C[C@H](C)[C@H](CN(C)C(=O)c2ccncc2)OCCCC[C@H](C)Oc2ccc(NC(=O)NC3CCCCC3)cc2C1=O
    -9.1[16.7 µM], 2.5
C[C@H](CO)N1C[C@H](C)[C@@H](CN(C)C(=O)C2CCC2)Oc2ncc(-c3ccc(F)cc3)cc2C1=O
    11.8[16.7 µM], 8.9
COc1ccc(S(=O)(=O)Nc2ccc3c(c2)CC(=O)N([C@H](C)CO)C[C@H](C)[C@H](CN(C)C(=O)NC(C)C)O3)cc1
    17.9[16.7 µM], -1.6
C/C=C/c1cnc2c(c1)C(=O)N([C@@H](C)CO)C[C@H](C)[C@H](CN(C)C(=O)c1cccc(F)c1)O2
    -6.8[16.7 µM], -4.6
COc1ccc(CN(C)C[C@H]2OCCCC[C@H](C)Oc3ccc(NC(=O)Nc4ccc(OC)cc4)cc3C(=O)N([C@@H](C)CO)C[C@H]2C)cc1
    -34.3[16.7 µM], 18.2
C[C@@H]1CN([C@H](C)CO)C(=O)c2cc(C#CC3CC3)cnc2O[C@@H]1CN(C)Cc1ccccn1
    8.6[16.7 µM], 12.6
Cc1noc(C)c1NC(=O)N(C)C[C@@H]1Oc2c(NC(=O)Nc3ccc(F)cc3)cccc2C(=O)N([C@H](C)CO)C[C@H]1C
    5.3[16.7 µM], -3.4
CCNC(=O)C[C@@H]1CC[C@H]2[C@H](COc3ccc(NS(C)(=O)=O)cc3C(=O)N2C)O1
    11.6[16.7 µM], 2.9
C[C@@H]1CN([C@H](C)CO)C(=O)CCCn2cc(nn2)CO[C@H]1CN(C)Cc1cccc2c1OCCCO2
    6.9[16.7 µM], 14.4
Cc1noc(C)c1NC(=O)N(C)C[C@@H]1OCCCC[C@@H](C)Oc2ccc(NC(=O)Nc3ccc(F)cc3)cc2C(=O)N([C@@H](C)CO)C[C@H]1C
    0.1[16.7 µM], 7.8
Cc1ccc(S(=O)(=O)N(C)C[C@H]2Oc3c(NC(=O)c4ccc(-c5nccs5)cc4)cccc3C(=O)N([C@@H](C)CO)C[C@H]2C)cc1
    10.0[16.7 µM], -8.4
N#C[C@H]1[C@@H](c2ccc(-c3ccncc3)cc2)[C@@H](CO)N1C(=O)C1CCCC1
    13.5[16.7 µM], -8.1
C[C@@H]1CN([C@H](C)CO)C(=O)c2cccc(NC(=O)Nc3cccc4ccccc34)c2O[C@@H]1CN(C)C(=O)Nc1ccc(F)cc1
    -7.5[16.7 µM], 3.0
COc1ccc(NC(=O)N(C)C[C@H]2Oc3c(NS(=O)(=O)c4cn(C)cn4)cccc3C(=O)N([C@@H](C)CO)C[C@H]2C)cc1
    -11.2[16.7 µM], -6.0
C[C@@H]1CN([C@@H](C)CO)C(=O)c2cccc(NS(=O)(=O)c3ccccc3)c2O[C@@H]1CN(C)S(=O)(=O)c1ccccc1
    -1.7[16.7 µM], -11.3
O=C(C[C@@H]1CC[C@@H](NC(=O)Nc2ccc(F)cc2)[C@@H](CO)O1)NCc1cccc(F)c1
    0.7[16.7 µM], -5.9
O=C(C[C@@H]1C[C@@H]2c3cc(NC(=O)C4CCOCC4)ccc3O[C@@H]2[C@H](CO)O1)NC1CCCC1
    -9.8[16.7 µM], -2.0
C[C@H](CO)N1C[C@H](C)[C@H](CN(C)S(C)(=O)=O)OCCCC[C@H](C)Oc2ccc(NC(=O)NC3CCCCC3)cc2C1=O
    1.7[16.7 µM], -7.2
COCC(=O)Nc1ccc2c(c1)C(=O)N(C)[C@@H]1CC[C@@H](CC(=O)NCc3ccccc3Cl)O[C@@H]1CO2
    ?, 16.5
C[C@@H]1CCCCO[C@@H](CN(C)S(=O)(=O)c2ccc(Cl)cc2)[C@H](C)CN([C@@H](C)CO)C(=O)c2cc(NC(=O)C3CCCCC3)ccc2O1
    31.1[16.7 µM], -4.0
C[C@H]1CN([C@@H](C)CO)C(=O)c2cc(NS(=O)(=O)c3ccc(F)cc3)ccc2O[C@@H]1CN(C)Cc1ccc(Cl)c(Cl)c1
    29.4[16.7 µM], 9.4
Cc1ccc(S(=O)(=O)Nc2ccc3c(c2)C(=O)N([C@H](C)CO)C[C@H](C)[C@@H](CN(C)Cc2ccc4c(c2)OCO4)OCCCC[C@@H](C)O3)cc1
    -20.2[16.7 µM], 12.5
C[C@H]1CN([C@@H](C)CO)C(=O)Cc2cc(N(C)C)ccc2O[C@H]1CN(C)Cc1ccncc1
    -7.5[16.7 µM], -8.2
CC(=O)N(C)C[C@@H]1Oc2cc(-c3cccc(F)c3)ccc2S(=O)(=O)N([C@@H](C)CO)C[C@H]1C
    -16.0[16.7 µM], 5.5
C[C@H]1CN([C@@H](C)CO)C(=O)c2cc(NC(=O)Nc3ccc(C(F)(F)F)cc3)ccc2O[C@@H]1CN(C)Cc1ccccc1
    -2.6[16.7 µM], -0.8
C[C@@H]1CN([C@@H](C)CO)C(=O)c2cc(NC(=O)Cc3cn(C)c4ccccc34)ccc2O[C@H]1CN(C)S(=O)(=O)c1ccccc1
    8.4[16.7 µM], -5.9
C[C@@H]1CN([C@@H](C)CO)S(=O)(=O)c2ccc(-c3cccc(C#N)c3)cc2O[C@@H]1CN(C)C(=O)c1cccnc1
    -7.3[16.7 µM], -12.0
C[C@@H]1CCCCO[C@@H](CN(C)C(=O)Nc2ccc(F)cc2)[C@@H](C)CN([C@H](C)CO)C(=O)c2cc(NC(=O)CCCCCC(=O)Nc3ccccc3N)ccc2O1
    -0.1[16.7 µM], 5.1
C[C@@H]1CN([C@@H](C)CO)C(=O)Cc2cc(NC(=O)Cc3cn(C)c4ccccc34)ccc2O[C@H]1CN(C)Cc1ccc(Oc2ccccc2)cc1
    -10.2[16.7 µM], 20.8
O=C(C[C@H]1C=C[C@@H](NC(=O)Nc2ccc(F)cc2)[C@@H](CO)O1)NCc1cccc(F)c1
    -2.8[16.7 µM], -3.7
C[C@H](CO)N1C[C@H](C)[C@H](CN(C)Cc2ccncc2)Oc2ccc(NC(=O)C3CCCCC3)cc2CC1=O
    -9.7[16.7 µM], -7.2

Some of the compounds tested. The share of hits here may be higher or lower than overall.
